NS1 inh: influenza NS1 inhibition | S. cerevisiae slowed by influenza A NS1, growth recovery by OD600 | Potency, µM (highest dose often 46.1 µM), for inactives: at the top dose activity, positive = more growth | 270,000 tested, 0.4% active | AID 2326; active means well fitted rising curve with a large enough effect; inconclusive means small, poorly fitted or top-dose-only effect; inactive means no such curve, though single readings can be large or run the other way; also: nearly all actives have a fitted effect of over 50% in size
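Growth recovery, yeast-based: influenza A NS1 expressed in S. cerevisiae causes slow growth, and suppressors are detected by OD600. The parent strain without NS1 is used as positive control.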
SARS PLP yeast: inhibitors of SARS-CoV papain-like protease in yeast; 330,000 tested, 0.19% active; AID 485353; Potency, µM (top dose mostly 32.9 µM), inactives show at the highest dose activity, positive = growth rescue; S. cerevisiae expressing SARS-CoV PLpro, growth rescue; control for the full effect not named in the record; active means well fitted rising curve with a large enough effect; inconclusive means small, poorly fitted or top-dose-only effect; inactive means no such curve, though single readings can be large or run the other way; also: 0% is about no effect; nearly all actives have a fitted effect of over 55% in size; growth read by luminescence after 48 h
RE007 growth inh: less growth of the S. pombe RE007 Vpr strain. S. pombe RE007 Vpr strain, BacTiter-Glo ATP luminescence, 24 h; control for the full effect not named in the record. Potency, µM (titrated, usually from 92.2 µM), inactives show top-dose activity change, negative = less growth. 360,000 tested, 0.21% active. AID 651644; active = well fitted falling curve with a large enough effect; inconclusive = small, poorly fitted or top-dose-only effect; inactive = no such curve, though single readings can be large or run the other way;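 also: % is scaled to controls: 0 for no effect and ±100 for the full control effect; nearly all actives have a fitted effect of over 50% in size; the assay follows cell death caused by Vpr and the record does not say whether a fall means rescue or toxicity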
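Fission yeast strain RE007, carrying one chromosomally integrated HIV-1 vpr copy, was seeded at OD 0.01 in PMG+AL medium with 23 nL pinned compound. After 24 h at 30 °C and 99% humidity, viability was read by BacTiter-Glo luminescence.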
MARV entry inh: Marburg virus entry inhibition; Marburg virus pseudotyped entry inhibition, cell reporter; control for the full effect not named in the record; about a third of the inactives were read at about 46 µM; Potency, µM (doses to about 37.8 µM), without a hit: at the top dose activity change, negative = inhibition, hits mostly inhibitors; 300,000 tested, 1.8% active; AID 540276; active = well fitted inhibition curve with a large enough effect; inconclusive = small, poorly fitted or top-dose-only effect, or effect the other way; inactive = flat fitted curve, though single readings scatter; tested in HEK293 cells; about a fifth of its hits are not listed in these tables; also: % is scaled to controls: 0 for no effect and ±100 for the full control effect; luciferase read-out
Cruzain inh Det: inhibitors of Trypanosoma cruzi cruzain with detergent; P25779; purified cruzain, Z-FR-AMC fluorescence, 0.01% Triton; Potency, µM, inactives show max response, negative = inhibition, usual class: inhibitors; 200,000 tested, 0.43% active;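 also: plate controls were neutral wells for no effect and buffer without enzyme for full effect; nearly all actives have a fitted effect of over 40% in size; top concentration of the series not given in the record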
Target sequence (P25779 123-467 limits assumed): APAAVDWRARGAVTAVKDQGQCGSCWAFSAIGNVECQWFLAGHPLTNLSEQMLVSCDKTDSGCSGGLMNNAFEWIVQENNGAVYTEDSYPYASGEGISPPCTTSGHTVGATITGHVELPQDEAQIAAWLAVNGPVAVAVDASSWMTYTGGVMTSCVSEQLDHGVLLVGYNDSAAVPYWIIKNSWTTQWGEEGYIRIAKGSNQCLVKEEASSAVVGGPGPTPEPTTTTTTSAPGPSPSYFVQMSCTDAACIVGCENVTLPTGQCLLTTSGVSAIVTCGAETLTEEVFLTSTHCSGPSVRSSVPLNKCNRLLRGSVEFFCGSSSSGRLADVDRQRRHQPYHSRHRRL
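Read-out: AMC fluorescence (360 nm excitation, 450 nm emission), four reads over 2 min, first-to-third difference used. Conditions: cruzain 1.5 nM, Z-FR-AMC 2 uM, pH 5.5 acetate, 5 mM DTT, 0.01% Triton X-100.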
Cruzain noTriton: blocks cruzain activity in detergent-free assay; P25779; AID 1476; Potency, µM, without a hit: max response, negative = inhibition, actives largely listed as inhibitors; purified cruzain, Z-FR-AMC fluorescence, no detergent; 200,000 tested, 2.3% active;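 also: plate controls were enzyme without inhibitor for no effect and buffer without enzyme for full effect; nearly all actives have a fitted effect of over 40% in size; top concentration of the series not given in the record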
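Detergent-free condition (0.00005% Triton X-100) in acetate buffer pH 5.5 with DTT. 1.5 nM enzyme and compound were pre-mixed 15 min, then 2 uM Z-FR-AMC substrate added; reaction progress from fluorescence change between first and third reads (60 s).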
2A StopGo: FMDV 2A StopGo reporter, luciferase signal; human cells with a luciferase reporter of 2A StopGo recoding; control for the full effect not named in the record; AID 1159524; 410,000 tested, 1.2% active; Potency, µM (doses to about 57.9 µM), for inactives: at the top dose signal change, negative = less light; active = well fitted falling curve with a large enough effect; inconclusive = small, poorly fitted or top-dose-only effect; inactive = no such curve, though single readings can be large or run the other way; tested in HEK293T cells; also: % is scaled to controls: 0 for no effect and ±100 for the full control effect; nearly all actives have a fitted effect of over 45% in size; luciferase light after 4 h
Lassa entry inh: blocks Lassa virus binding to or entry into cells; Lassa virus pseudotype entry inhibition, cell reporter; control for the full effect not named in the record; Potency, µM (top dose mostly 37.9 µM), for inactives: top-dose activity change, negative = inhibition, hits mostly inhibitors; 300,000 tested, 1.2% active; active means well fitted inhibition curve with a large enough effect; inconclusive means small, poorly fitted or top-dose-only effect, or effect the other way; inactive means flat fitted curve, though single readings scatter; tested in HEK293 cells; also: % is scaled to controls: 0 for no effect and ±100 for the full control effect; nearly all actives have a fitted effect of over 50% in size; luciferase read-out
The depositor's hits bear a star; u = inconclusive; x = not tested or not shown; [ ] = dose if it differs, or a comment. Unless noted, calls follow the shape of the dose curve; as a rule, active = well fitted curve in the direction sought with a large enough effect; inconclusive = small, poorly fitted or top-dose-only effect, or another doubt; inactive = no such curve, though single readings can be large; an effect the other way counts as inactive or inconclusive. Potency is read from the fitted curve at half-maximal effect.

Values run as follows: NS1 inh, SARS PLP yeast, RE007 growth inh, MARV entry inh, Cruzain inh Det, Cruzain noTriton, 2A StopGo, Lassa entry inh
- CC(=O)N1CSCC1C(=O)O (centres undefined)
 : -3%, -4%, 11%, 15%, 6.3%, -2%, -2%, 0%
- COc1ccc(CCNC(=O)c2cc([N+](=O)[O-])cc([N+](=O)[O-])c2)cc1OC
 : 1%, 1%, 7%, -22%[46.1 µM], x, x, -5%, -2%[46.1 µM]
- CC1(C(=O)Nc2cccc(S(=O)(=O)N3CCOCC3)c2)Cc2ccccc2C(=O)O1 (centres undefined)
 : -5%, 0%, 7%, x, x, x, 20%, x
- O=c1c(Cc2ccc(Cl)cc2Cl)c(O)ccn1Cc1ccncc1
 : -6%, 1%, 6%, u, x, x, 10%, 11%[46.1 µM]
- CCN(CC(=O)NCc1ccc(F)cc1)CC(=O)Nc1ccc(S(=O)(=O)N2CCCC2)cc1
 : 2%, -8%, -4%, -1%, x, x, -3%, 6%
- O=C(CCSc1ccccc1)Nc1ccc(OCc2ccccc2)cc1
 : 1%, 1%, -8%, 1%, 5.0%, u, 20%, -4%
- O=c1cc(CSc2nc(NCc3ccccc3)c3ccccc3n2)nc2ccc(Cl)cn12
 : 9%, 5%, -3%, 27%, -22%, -14%, -23%, 0%
- Cc1c(C(=O)Nc2cccc([N+](=O)[O-])c2)cnn1-c1ccccc1
 : -17%, -6%, 3%, x, x, x, 21%, x
- O=C(Nc1ccccc1)C1CCCN(C(=O)c2ccc(Cl)cc2)C1 (centres undefined)
 : x, 3%, 15%, u, x, x, u, u
- S=C(Nc1ccccc1)N1CCCCCC1
 : 3%, 17%, 19%, -12%[46.1 µM], 3.9%, -8%, 27%, 9%
- CN(CCO)S(=O)(=O)c1ccc2c(c1)C(=NNC(N)=O)c1cc(S(=O)(=O)N(C)CCO)ccc1-2
 : -1%, 1%, -1%, x, x, x, 0%, x
- COc1ccc(N2CC(C(=O)Nc3cccnc3)CC2=O)cc1 (centres undefined)
 : 0%, 2%, 15%, 0%[46.1 µM], x, x, 7%, 3%[46.1 µM]
- C=CCn1c(SCC(=O)N(C)CC(=O)Nc2ccc(C)cc2)nnc1-c1ccncc1
 : x, 18%, 1%, 14%[46.1 µM], x, x, -6%, 7%[46.1 µM]
- CSCCC(NC(=O)c1ccc(Cl)cc1)C(=O)OCC(=O)NCc1ccco1 (centres undefined)
 : x, 0%, 5%, -9%, x, x, 5%, -2%[46.1 µM]
- CCOc1ccc(N(CC(=O)Nc2ccc(OC)cc2)S(=O)(=O)c2ccc(Cl)cc2)cc1
 : x, x, x, x, 0.1%, 2%, -10%, -12%[46.1 µM]
- O=C(/C=C/c1ccc(F)cc1)NCCC1=CCCCC1
 : -43%, 1%, 17%, u, 5.7%, 9%, 31%[activator], u
- COc1cc2c(cc1NC(=O)COc1ccc3ccccc3c1)oc1ccccc12
 : 5%, 11%, -2%, u, -6.2%, 10µM*, -7%, -21%
- CCN(CC(=O)NCc1cccs1)C(=O)c1cccc(S(=O)(=O)Nc2ccccc2Cl)c1
 : x, -2%, 2%, u, x, x, 9%, -3%
- COc1ccc(NC(=O)c2cc(C3CC3)on2)c(OC)c1
 : u, 2%, -10%, x, -0.2%, -6%, -4%, x
- c1coc(CNc2nc3sc4c(c3c3ncnn23)CCCC4)c1
 : -81%, -5%, -12%, 29%, -10.0%, u, -23%, -2%
- COC(=O)c1ccc(C)c(NC(=O)c2c(-c3ccccc3)noc2C)c1
 : -6%, 2%, 0%, -22%, -1.2%, -3%, x, -8%
- C/C(C=O)=C/c1ccccc1
 : x, 10%, 0%, x, -0.5%, -2%, -11%, x
- O=C(O)CCS(=O)(=O)c1ccc(-c2ccccc2)cc1
 : 4%, -5%, -24%, 2%, 4.9%, 3%, -8%, 4%
- COc1ccc(Cl)cc1Nc1nc(-c2sc(NC(=O)CC(C)C)nc2C)cs1
 : 0%, 1%, -6%, x, -2.0%, 20µM*, -29%, x
- COc1ccc(N2CCN(C(=O)c3ccc(Cl)c(S(=O)(=O)N4CCCC4)c3)CC2)cc1
 : 1%, -1%, 3%, x, x, x, 3%, x
- CN1N=C(N)c2cn(C3OC(COP(=O)(O)O)C(O)C3O)c3ncnc1c23 (centres undefined)
 : x, x, 9%, u, x, x, -13%, -28%
- CC(=O)c1cccc(S(=O)(=O)NCC(C)(C)N2CCOCC2)c1
 : 3%, -1%, 19%, -1%[46.1 µM], x, x, -17%, 11%
- CC(C)(CCl)C(=O)Nc1ccc(OC(F)(F)F)cc1
 : x, -1%, 1%, 7%[46.1 µM], x, x, 5%, -10%[46.1 µM]
- CCCc1cc2c(cc1NC(=O)c1ccc(Br)cc1)OCO2
 : -8%, 7%, -7%, -8%, 5.0%, 6%, -4%, -2%
- Cc1nonc1OC(C)CNc1ccc([N+](=O)[O-])cc1 (centres undefined)
 : -10%, -14%, -8%, u, -9.8%, 2%, -14%, -1%
- COc1ccc(N2C(=O)c3ccc(C(=O)Nc4ccc(NC(C)=O)cc4)cc3C2=O)cc1
 : 1%, 1%, -16%, 4%[46.1 µM], x, x, -9%, 8%[46.1 µM]
- COCCNc1nc(-c2cc(-c3ccccc3)on2)cc(C(C)C)n1
 : -48%, -15%, -13%, x, x, x, -16%, x
- Cc1ccccc1/[N+]([O-])=C/c1ccncc1
 : 2%, 11%, -14%, 28%, 1.3%, 2%, 10%, 16%
- CCC1CCc2c(c3ccccc3[nH]c2=O)O1 (centres undefined)
 : -2%, -6%, 15%, u, -2.9%, -4%, -11%, -9%
- CCC(O)CC(C(=O)NNc1ccccc1)C(=O)NNc1ccccc1 (centres undefined)
 : x, -1%, 218%, 2.5µM*, x, x, -2%, u
- COc1ccc(CN2CCN(Cc3nc4ccccc4s3)CC2CCO)c(C)c1C (centres undefined)
 : 5%, 5%, -2%, x, x, x, u, x
- C=CCn1c(=NC(=O)CN2C(=O)CCC2=O)sc2cccc(OC)c21
 : -3%, 3%, 5%, x, 1.4%, 5%, -23%, x
- O=[N+]([O-])c1ccccc1S(=O)(=O)Nc1ccc(-c2ccc(N3CCCC3)nn2)cc1
 : x, 7%, -3%, u, x, x, 78%[activator], 9%
- Cc1cccc(NC(=O)c2ccc3nc(N4CCOCC4)sc3c2)c1C
 : 10%, 8%, -10%, x, x, x, -7%, x
- COc1ccc(NS(=O)(=O)c2ccc3[nH]c(=O)[nH]c3c2)cc1
 : -17%, 1%, -14%, x, x, x, -4%, x
- C=C(C)C1CC=C(CN2CCN(Cc3ccccc3)CC2)CC1 (centres undefined)
 : -32%, -5%, -19%, x, x, x, -21%, x
- Cc1cc(C)c2c(c1)-c1c(ssc1=S)C(C)(C)N2C(=O)CN1C(=O)c2ccccc2C1=O
 : u, -23%, 3%, 4µM*, -7.4%, u, 0%, -7%
- CCC1(CC)NC(=O)N(CC(=O)OCC(=O)Nc2cc(C)ccc2C)C1=O
 : 1%, -2%, 4%, 4%, -3.1%, 2%, -16%, -10%
- CN(C)CCn1c2c(c(SCC(=O)Nc3cccc4ccccc34)nc1=O)CCC2
 : x, 1%, -6%, u, x, x, -4%, -11%
- Cc1ccc(S(=O)(=O)N(C)CC(=O)O/N=C(\N)c2cccc([N+](=O)[O-])c2)cc1
 : -50%, 2%, 0%, 3%, -0.6%, 3%, -27%, -24%
- O=C(O)c1cccc(NC(=O)c2ccc(S(=O)(=O)c3ccccc3)cc2)c1
 : 21%, -5%, -1%, u, -4.3%, -7%, -13%, 5%
- CC(C)C1N(c2ccccc2)C(N)=C(C#N)C1(C#N)C#N (centres undefined)
 : -5%, -1%, -8%, -21%, -0.2%, -2%, u, -18%
- COc1ccc(C2CC(c3cc(Br)ccc3F)n3nnnc3N2)cc1 (centres undefined)
 : -33%, -3%, 5%, 9%, -4.2%, -5%, -10%, -20%
- CCNC(=O)CSc1nnc(-c2cccc(S(=O)(=O)N(CC)CC)c2)n1CCc1ccccc1
 : -14%, 4%, 18%, 17%, 1.0%, u, 0%, -21%
- COc1ccc(NC(C)=O)cc1S(=O)(=O)NC(Cc1ccccc1)C(=O)NC(C)c1ccccn1 (centres undefined)
 : x, x, -15%, u, x, x, -2%, -4%
- O=C(CN1C(=O)c2ccccc2S1(=O)=O)Nc1ccccn1
 : x, -2%, -13%, 7%[46.1 µM], x, x, 9%, 10%
- O=C(c1ccc2c(c1)N(Cc1ccccc1F)C(=O)c1ccccc1S2)N1CCOCC1
 : -4%, -1%, 22%, x, x, x, -13%, x
- CCOC(=O)N1CCN(C(=O)c2oc3ccc(S(=O)(=O)N4CCCCC4)cc3c2C)CC1
 : -9%, 4%, 7%, u, 1.2%, u, u, 2%
- CC(C)OC(=O)c1c(NC(=O)c2cccc(C(F)(F)F)c2)sc2c1CCCC2
 : x, x, x, x, -0.5%, 9%, -14%, 9%[46.1 µM]
- O=C(c1cccc(S(=O)(=O)N2CCN(c3ccc(F)cc3)CC2)c1)N1CCCCCCC1
 : x, 0%, -9%, -20%, x, x, -17%, -24%[46.1 µM]
- CCOC(=O)N1CCc2c(sc3c2c(=O)n(Cc2ccccc2)c(=O)n3CC(=O)Nc2ccccc2F)C1
 : x, x, x, 0%[46.1 µM], -0.7%, -10%, -11%, 18%[46.1 µM]
- CC1(c2ccc(OC(F)F)cc2)NC(=O)N(CC(=O)Nc2ccccc2)C1=O (centres undefined)
 : 9%, 1%, -1%, 20%[46.1 µM], x, x, 20%, -43%
- O=C(/C=C/c1ccccc1)NC(=S)NNS(=O)(=O)c1ccccc1
 : 2%, 1%, -11%, u, x, x, 8%, 21%[46.1 µM]
- S=C(NC1CCCCCC1)NC1CCCC1
 : x, -2%, 7%, u, x, x, 32%[activator], x
